Screens: PubChem BioAssay, SRMLSC
H5N1 CPE: MDCK cell protection from H5N1 avian flu; cytopathic effect, luminescence, 72 h; hits give high values; no value below 0 was filed and about half of the inactive calls have no number; reference of the scale not given here; inhibition, % at 50 µM; 0.07% of 96,000 active; AID 740; in the data active = inhibition above about 25%
Active calls of the source: *; i = inactive. This is a subset. The share of hits here may be higher or lower than overall.

Compound	H5N1 CPE
COc1ccc(Cc2nc(C(=O)Nc3ccc(OC)cc3)cs2)cc1	i
CN(C)CCSc1nc(N)c2c3c(sc2n1)COC(C)(C)C3	0.3
CC(C)C(c1nnnn1Cc1ccccc1)N1CCC(C(N)=O)CC1 (stereo unspecified)	0.3
CN1CCN(c2nc3c(c(=O)[nH]c(=O)n3C)n2CCCSc2ncccn2)CC1	1.5
Cc1cc(C(C)(C)C)oc1C(=O)N1CCN(C(=O)c2oc(C(C)(C)C)cc2C)CC1	0.6
Cc1ccc2c(CC(=O)OC(C)C(=O)NCc3ccc4c(c3)OCO4)coc2c1 (stereo unspecified)	1.3
O=C(CN1CCN(S(=O)(=O)c2ccc(Br)cc2)CC1)Nc1ccc(F)cc1	4.9
N#Cc1c(NC(=O)c2ccccc2)sc2c1CCC2	i
CCC(C)[C@H](N)c1nnc(SCc2cccc(F)c2)o1 (stereo partly specified)	0.2
COc1cc(NC(=O)c2cc3sccc3n2C)cc(OC)c1	i
Cc1ccccc1NC(=O)CSc1nc(N2CCCCC2)nc(N2CCCCC2)n1	i
CCn1c(NC(=O)c2cccs2)nc2ccccc21	0.1
COc1cccc(CNC2CN3CCC2CC3)c1OC (stereo unspecified)	0.0
Cc1oc2c(C)c(O)ccc2c(=O)c1-c1ccc2ccccc2n1	i
CCCC(=O)C1C(=O)NC(=O)NC1=O	i
CC(OC(=O)c1cccs1)C(=O)NCc1cccs1 (stereo unspecified)	i
CCn1nnnc1SCCSc1nnnn1CC	i
COc1ccccc1CNC(=O)CSc1nc2nc(C)cc(C)n2n1	0.6
Cc1nn(Cc2ccccc2)c(C)c1NC(=O)Cn1nc([N+](=O)[O-])c(Cl)c1C	0.5
CC1(C)CC(=O)C2=C(C1)N(Cc1cccnc1)C(=O)C2(NC(=O)c1cccnc1)C(F)(F)F (stereo unspecified)	0.0
O=C(C[n+]1ccc(C(=O)N/N=C/c2ccc(Cl)cc2Cl)cc1)c1ccccc1	i
CCOC(=O)c1[nH]nc2c1C(=O)N(Cc1ccccc1)C2=O	i
CSc1nc2ccc(NS(=O)(=O)c3ccc4c(c3)OCCO4)cc2s1	i
Cc1ncsc1CCSc1n[nH]c(=O)n1-c1ccccc1	0.7
O=C(Cn1nnc(-c2ccccc2)n1)c1ccccc1	i
CCCC(C(=O)NCc1ccco1)N(C(=O)CNS(=O)(=O)c1ccc(Cl)cc1)C1CCCC1 (stereo unspecified)	i
c1cncc(-c2nc(-c3ccco3)cs2)c1	0.1
N#CCSCC(=O)Nc1ccc(Cl)cc1	i
CCCCn1c(=O)n(CC(=O)Nc2ccc(C)c(Cl)c2)c(=O)c2c1ncn2Cc1ccco1	i
Nc1c(C(=O)NC2CCCC2)c2nc3ccccc3nc2n1CC1CCCO1 (stereo unspecified)	i
Cc1oc(-c2cccs2)nc1CS(=O)CC(=O)NCCCN1CC(C)CC(C)C1 (stereo unspecified)	i
O=C(CC1CCCCC1)N1CCCC(c2nc(-c3ccc(S(=O)(=O)N4CCCC4)cc3)no2)C1 (stereo unspecified)	i
CC(=O)c1ccc(N2CCN(C(=O)CCCn3c(=S)[nH]c4cc5c(cc4c3=O)OCO5)CC2)cc1	0.8
N#Cc1c(N)n(CCNC(=O)c2ccc(Cl)cc2)c2nc3ccccc3nc12	i
Cc1ccc(NC(=O)CCC(=O)NNC(=O)c2ccco2)c(C)c1	1.3
COC(=O)c1ccccc1NC(=O)NCc1ccco1	i
CC1(C)NC(=O)N(CCCCOc2ccc(Br)cc2Cl)C1=O	6.2
CCn1c(SCc2cccnc2)nnc1-c1c[nH]c2ccccc12	1.4
CCOc1ccc(NC(=O)CSc2nnc(-c3ccccn3)n2N)cc1	i
Cc1c(C(=O)N2CCOCC2)sc(NC(=O)c2ccc3c(c2)OCO3)c1C#N	0.2
CCc1ccc(NC(=O)CSc2nc3cc(C(=O)OC)ccc3c(=O)n2CC2CCCO2)cc1 (stereo unspecified)	i
COc1cccc(-c2csc(N3CCN(C(=S)Nc4cccc(Cl)c4)CC3)n2)c1	0.4
COCCOC(=O)C1=C(C)NC(=O)NC1c1c(OC)ncnc1OC (stereo unspecified)	0.7
CCn1c(SCC(=O)Nc2cc(C)on2)nnc1-c1ccc(S(=O)(=O)N2CCCC2)cc1	i
CCC(SC1=Nc2ccccc2C2=NC(CC(C)C)C(=O)N12)C(=O)Nc1ccc2c(c1)OCO2 (stereo unspecified)	0.6
O=C(NC1=NCCS1)c1ccc(Cl)c(S(=O)(=O)N2CCCCC2)c1	1.1
O=S(=O)(Nc1ncn[nH]1)c1ccc(Cl)cc1	0.9
O=C(Cc1ccc(NS(=O)(=O)c2ccc(F)cc2)cc1)NCc1ccccc1	0.2

Continued; it opens with the two that closed the last part.
Compound	H5N1 CPE
O=S(=O)(Nc1ncn[nH]1)c1ccc(Cl)cc1	0.9
O=C(Cc1ccc(NS(=O)(=O)c2ccc(F)cc2)cc1)NCc1ccccc1	0.2
CCOC(=O)N1CCC(N2CCN(S(=O)(=O)CC)CC2)CC1	i
O=C(c1ccc(Br)cc1)C1CCc2occc2C1=O (stereo unspecified)	0.1
O=C(Nc1ccccc1C(=O)N1CCCCC1)C1CCCCC1	i
Cc1cccc(Cn2cnc3c(nnn3Cc3ccccc3F)c2=O)c1	i
Cc1ccc(NC(=O)C2CCN(S(=O)(=O)c3ccc(F)cc3)CC2)cc1	i
Cc1ccnc(N2C(=O)c3cccc4c([N+](=O)[O-])ccc(c34)C2=O)c1	i
O=C1c2ccccc2C(=O)N1CCN1CCOCC1	i
COc1ccccc1C1NC(=O)NC(C)=C1C(C)=O (stereo unspecified)	i
Cc1ccc(S(=O)(=O)N[C@H](C(=O)N2CCC(C(=O)NCC(=O)O)CC2)C(C)C)cc1	1.7
COc1ccc(NC(=O)C2CC(=O)OC23CCOC(C)(C)C3)cc1 (stereo unspecified)	0.5
O=C(c1ccco1)N1CCN(Cc2cccnc2)CC1	i
CCOC(=O)N1CCN(C(=O)COc2cc(=O)n(CC)c3ccccc23)CC1	i
O=S(=O)(c1ccccc1)N1CCN(C2CCCCCCC2)CC1	2.3
Cc1ccc(CNc2ccc(N3CCOCC3)c(C(=O)O)c2)s1	i
Cc1ccc(CN(Cc2cc3cc(C)ccc3[nH]c2=O)C(=O)N2CCOCC2)cc1	i
CC(C)CC(=O)Nc1cccc(-c2csc(-c3ccccc3)n2)c1	i
CCCCNS(=O)(=O)C1CCS(=O)(=O)C1 (stereo unspecified)	0.3
Cn1nnnc1SCC(=O)Nc1ccccc1C(=O)NC1CC1	0.1
COc1cc(C(c2nnnn2C2CCCC2)N2CCN(C)CC2)cc(OC)c1OC (stereo unspecified)	i
O=C(Nc1ccccc1Oc1ccccc1)c1cnccn1	1.1
CC(C)(C)NS(=O)(=O)c1ccc2c(c1)oc(=O)c1cc(S(=O)(=O)NC(C)(C)C)ccc12	0.3
COc1ccc(S(=O)(=O)N2CCn3c2nc2ccccc23)cc1	0.8
CC(C)(C)NC(=O)c1cc(NC(=O)c2ccco2)cc(NC(=O)c2ccco2)c1	i
C#CCSc1nsc(SCC#C)c1C#N	9.2
O=C(CSc1nnc2ccccn12)N1CCOCC1	2.1
N#C/C(=C(/O)COC(=O)c1ccc2c(c1)OCCO2)c1nc2ccccc2[nH]1	0.8
O=c1[nH][nH]c(-c2ccccc2)c1C=Nc1cccc(Cl)c1	i
CCCCCC(=O)Nc1nc(C)c(-c2csc(Nc3cc(Cl)ccc3C)n2)s1	i
Cc1cc(C)c(S(=O)(=O)N(C)CC(=O)NC2CCCC2)c(C)c1	i
COc1ccc(OC)c(NC(=O)C2COc3ccccc3O2)c1 (stereo unspecified)	i
Cc1c(NC(=O)C(C)OC(=O)c2cc3c4ccccc4n(C)c3s2)c(=O)n(-c2ccccc2)n1C (stereo unspecified)	i
CC(=O)Nc1ccc(S(=O)(=O)Oc2cccc(N3C(=O)C4CC=CCC4C3=O)c2)cc1 (stereo unspecified)	2.0
CCOC(=O)c1cccc(NC(=O)CSc2nnc(COc3ccccc3C)o2)c1	0.2
COc1ccc(N(CC(=O)N2CCCCC2)S(=O)(=O)c2c(C)nn(C)c2C)cc1	0.8
CC(C)C1CC(c2csc(N)n2)CCO1 (stereo unspecified)	1.5
C=C(C)C1Cc2c(C)nn(-c3cccc4ccccc34)c2C1 (stereo unspecified)	3.1
O=c1[nH]c(CN2CCN(c3ccc(F)cc3)CC2)nc2ccccc12	i
Cc1nc2nc3c(c(=O)n2[nH]1)CCCC3	0.5
Cn1c(SCC(=O)NCCc2ccccc2)nnc1-c1ccco1	0.1
COc1cc(Cn2c(C(=O)O)cc3sccc32)cc(OC)c1OC	0.8
Cc1cc2nnn(-c3nnc(-c4ccccc4)c4ccccc34)c2cc1C	0.8
N#CC(C(=O)C1CCCCC1)c1nc2ccccc2[nH]1 (stereo unspecified)	i
O=S(=O)(c1ccccc1C(F)(F)F)N1CCC(n2cnc3ccccc32)CC1	0.9
O=C(/C=C/c1ccccc1Cl)NC(=S)Nc1ccccc1C(=O)NC1CCCCC1	i
O=C(C#Cc1cccc([N+](=O)[O-])c1)c1ccccc1	2.0
Cc1cc(C2C(=O)C(C(=O)c3ccc(Cl)cc3)C(=O)CC2(C)C)on1 (stereo unspecified)	0.2
Cc1nc2cc(NC(=O)COc3ccccc3C#N)ccc2n1-c1ccccc1	i
CC1(C)NC(=O)N(CCCCOc2cccc(C(F)(F)F)c2)C1=O	i

In the list so far, 3 have a nitro group on carbon.
Compound	H5N1 CPE
Cc1nn(Cc2ccccc2)c(C)c1NC(=O)Cn1nc([N+](=O)[O-])c(Cl)c1C	0.5
Cc1ccnc(N2C(=O)c3cccc4c([N+](=O)[O-])ccc(c34)C2=O)c1	i
O=C(C#Cc1cccc([N+](=O)[O-])c1)c1ccccc1	2.0

Next part.
Compound	H5N1 CPE
Cc1cc(S(=O)(=O)Nc2c(C(=O)O)[nH]c3ccccc23)ccc1F	i
O=C(Nc1ccon1)C1CCN(S(=O)(=O)c2cccs2)CC1	i
Cc1oc2c(CN3CCCC3)c(O)ccc2c(=O)c1Oc1ccccc1Br	i
Clc1ccccc1CSc1nnc(-c2cccnc2)n1Cc1ccco1	0.4
O=C(CCSc1nnc2scc(-c3ccccc3)n12)Nc1nc(-c2ccccc2)ns1	i
COc1ccc(-c2nc(CSCC(=O)N3CCN(C)CC3)c(C)o2)cc1OC	0.9
COC(=O)c1sccc1NC(=O)c1ccc(C)o1	9.7
CCOC(=O)C1=C(C)NC(=O)NC1c1ccc(NC(C)=O)cc1 (stereo unspecified)	0.2
CCC(=O)Nc1nnc(Sc2ccc(N(C)C)cc2)s1	0.8
CCOc1cc(CNc2ccc3c(c2)CCC3)ccc1O	i
COc1ccc(OC)c(C2CC(=O)c3c([nH]c(C(=O)OCC4CCCO4)c3C)C2)c1 (stereo unspecified)	i
CCCN1CN(Cc2ccccc2)CC2=C1CC(C)(C)CC2=O	0.1
CC(C)C(=O)NC(C)C(c1cccs1)N1CCN(C)CC1 (stereo unspecified)	0.6
CCCn1c(C)cc(-c2csc(N)n2)c1C	i
O=C(COC(=O)CCc1c[nH]c(=O)[nH]1)Nc1ccccc1Cl	1.3
O=S(=O)(c1ccc(F)cc1)N1CCn2c(nc3ccccc32)C1	1.2
COc1ccc(-c2cc(=O)[nH][nH]2)cc1	0.5
COc1ccc(C(=O)c2c(C)oc3cc([N+](=O)[O-])c(O)c([N+](=O)[O-])c23)cc1	2.2
CC(=O)NC1N=C(C)N(c2ccccc2)C1=O (stereo unspecified)	0.4
CCCCn1c(C)nc2c(=O)n(C)c(=O)[nH]c21	0.2
CC1(C)N=C(SCC(=O)Nc2ccc(Cl)cc2)C(c2ccc(Cl)cc2)=N1	i
CCn1c(SC)nnc1C1CCN(S(=O)(=O)c2ccc(OC)cc2)CC1	0.4
CCC(CC)c1nnc(NS(=O)(=O)Cc2ccccc2)s1	i
O=C(Nc1nnc(Cc2ccccc2)s1)c1ccco1	0.2

Nothing new here: an excerpt of the list.
Compound	H5N1 CPE
CC(C)C(=O)NC(C)C(c1cccs1)N1CCN(C)CC1 (stereo unspecified)	0.6
CCCn1c(C)cc(-c2csc(N)n2)c1C	i

(cont.)
Compound	H5N1 CPE
CCC(=NC1CCN(Cc2ccccc2)CC1)c1c(O)[nH]c(=O)[nH]c1=O	i
O=c1cc(CSc2ccc(S(=O)(=O)N3CCCCC3)cn2)nc2sccn12	0.3
COC1(OC)N=C(N)C2(C#N)C(c3ccc(F)cc3)C12C#N (stereo unspecified)	i
COc1ccc(Cc2noc(-c3ccc(C)cc3)n2)cc1	0.9
Cc1ccccc1NC(=S)Nc1cccc([N+](=O)[O-])c1	1.7
Cc1cc(C)c2c3c(sc2n1)C(c1ccccc1)C(C#N)=C(N)O3 (stereo unspecified)	0.8
CC1(C)CC(=O)c2c(O)cc(O)cc2O1	i
C=C1CSc2nc3ccccc3c(=O)n21	1.9
O=C(NC1CCCc2ccccc21)C1CCN(S(=O)(=O)N2CCCCCC2)CC1 (stereo unspecified)	4.4
Fc1ccc(-c2nn3c(C4COc5ccccc5O4)nnc3s2)cc1 (stereo unspecified)	i
O=C(NCc1nc2ccccc2[nH]1)c1cccc(S(=O)(=O)N2CCOCC2)c1	i
COc1ccc(NC(=O)CSc2nnc(CN3CCOCC3)n2-c2ccccc2)cc1Cl	i
O=C(CSc1nc2c([nH]c3ccccc32)c(=O)n1-c1ccc(F)cc1)NCc1ccco1	i
CN1CCN(c2cc(=O)n(-c3ccc(Cl)cc3)c(=O)[nH]2)CC1	1.4
Cc1c(C(=O)OCC(=O)c2ccc3c(c2)OCCO3)oc2ccccc12	i
